High-throughput results: PubChem, National Center for Advancing Translational Sciences (NCATS)
Pf growth 96h – inhibits malaria parasite growth, 96 h; P. falciparum luciferase reporter growth, 96 h; Potency, µM (highest dose often 28.7 µM), for inactives: at the highest dose activity change, negative = inhibition, most hits filed as inhibitors; 320,000 tested, 6.9% active; AID 504834
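Plates of compound plus infected erythrocytes (2% hematocrit, 0.05% parasitemia final) incubate 96 hours, 37 C, 5% CO2. Detection reagent added; reduced luminescence from the parasites' luciferase reporter flags inhibition.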
Pf growth 48h – inhibits P. falciparum growth in the first generation, 48 h; 310,000 tested, 5.9% active; P. falciparum luciferase growth in erythrocytes, 48 h; AID 504832; Potency, µM (titrated, usually from 28.7 µM), for the others: at the top dose activity change, negative = inhibition, hits mostly inhibitors
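Cell-based growth assay: transgenic P. falciparum expressing firefly luciferase, cultured in red cells within RPMI 1640 containing 0.5% w/v Albumax, 24 mM bicarbonate and gentamycin. A drop in luciferase activity indicates inhibition.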
Sm TGR inh – blocks Schistosoma mansoni thioredoxin glutathione reductase; Q962Y6; purified TGR, DTNB reduction, TNB absorbance 405 nm; Potency, µM (doses to about 114 µM), inactives show top-dose activity change, negative = inhibition, usual class: inhibitors; 360,000 tested, 3% active; AID 485364; note: nearly all actives have a fitted effect of over 60% in size
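First, TGR (20 nM dispensed) and NADPH were mixed with compound. Second, a 15 min room-temperature incubation followed. Third, further NADPH and then DTNB were added to start the reaction. Finally, TNB absorbance was monitored kinetically.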
The depositor's hits bear a star; ? = inconclusive; . = no result given; [ ] = remark or other dose. Calls come from the whole dose curve; as a rule, active = well fitted curve in the direction sought with a large enough effect; inconclusive = small, poorly fitted or top-dose-only effect, or another doubt; inactive = no such curve, though single readings can be large; an effect the other way counts as inactive or inconclusive. % is set by controls: 0 for no effect and ±100 for the full control effect; potency is the fitted concentration of half-maximal effect. Not all compounds are listed (hit frequency here may not be typical).

1	Nc1ccn(C2CC(O)C(CO)O2)c(=O)n1 (stereo not given)
2	Nn1cnc2cc3ccccc3cc2c1=O
3	O=S(=O)(Nc1nnc(-c2ccccc2)s1)c1ccc(Cl)cc1
4	N#Cc1c(-c2cccs2)nc(SCC(=O)c2ccc(Br)cc2)[nH]c1=O
5	Cc1ccccc1-c1nc(CN2CCC(C(=O)NCCCN3CCOCC3)CC2)c(C)o1
6	Nc1c(Cl)cc([N+](=O)[O-])cc1Cl
7	O=C(O)/C=C/c1cnc[nH]1
8	CN[C@H](C)[C@H](O)c1ccccc1
assay / compound | 1 | 2 | 3 | 4 | 5 | 6 | 7 | 8
Pf growth 96h | 60%[activator] | 18% | 18% | 7% | 0% | 16% | 2% | .
Pf growth 48h | 25% | 39%[activator] | 8% | 11% | ? | 36%[activator] | -20% | .
Sm TGR inh | 29% | 2% | 2% | -25% | -27% | 2% | 0% | -16%

From compound 1 as far as 5, copied from above:
1	Nc1ccn(C2CC(O)C(CO)O2)c(=O)n1 (stereo not given)
2	Nn1cnc2cc3ccccc3cc2c1=O
3	O=S(=O)(Nc1nnc(-c2ccccc2)s1)c1ccc(Cl)cc1
4	N#Cc1c(-c2cccs2)nc(SCC(=O)c2ccc(Br)cc2)[nH]c1=O
5	Cc1ccccc1-c1nc(CN2CCC(C(=O)NCCCN3CCOCC3)CC2)c(C)o1
assay / compound | 1 | 2 | 3 | 4 | 5
Pf growth 96h | 60%[activator] | 18% | 18% | 7% | 0%
Pf growth 48h | 25% | 39%[activator] | 8% | 11% | ?
Sm TGR inh | 29% | 2% | 2% | -25% | -27%

The listing continues:
9	O=C(COc1ccc2c(c1)OCO2)Nc1ccccc1F
10	Cc1cc(C(=O)OCC(=O)c2ccc3c(c2)OCCO3)c(C)o1
11	C#CC(C)(O)CC (stereo not given)
12	COc1ccc(OCC(=O)Nc2ccccc2O)cc1
13	CC(C)NCC(O)COc1ccc(CC(N)=O)cc1 (stereo not given)
assay / compound | 9 | 10 | 11 | 12 | 13
Pf growth 96h | ? | -28% | -3% | 37% | -1%
Pf growth 48h | 296%[activator] | 117%[activator] | -5% | . | -4%
Sm TGR inh | -1% | 3% | . | -14% | 1%

Of the compounds above, these have a Cl atom.
3	O=S(=O)(Nc1nnc(-c2ccccc2)s1)c1ccc(Cl)cc1
6	Nc1c(Cl)cc([N+](=O)[O-])cc1Cl
assay / compound | 3 | 6
Pf growth 96h | 18% | 16%
Pf growth 48h | 8% | 36%[activator]
Sm TGR inh | 2% | 2%
